YopH PTP inh: YopH (Yersinia) phosphatase inhibition | fluorescence Ex485/Em525 | inhibition, %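 (about 10 µM by stock and volumes)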 | 0.16% of 140,000 active;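 active = inhibition of 50% or more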;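 note: controls were vehicle for no effect and minimum signal wells for full effect; inactives centre near -20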
RecA splice inh: blocks M. tuberculosis RecA intein splicing. P9WHJ3. cell-free RecA intein splicing, fluorescence. inhibition, %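 (about 9 µM by stock and volumes)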. 0.75% of 290,000 active. AID 2221; in the data active = inhibition above about 30%; inconclusive = no clear call, values can overlap the other calls;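 note: 0% = vehicle wells and 100% = reference inhibitor control wells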
Target sequence (P9WHJ3 whole entry, looked up, canonical isoform): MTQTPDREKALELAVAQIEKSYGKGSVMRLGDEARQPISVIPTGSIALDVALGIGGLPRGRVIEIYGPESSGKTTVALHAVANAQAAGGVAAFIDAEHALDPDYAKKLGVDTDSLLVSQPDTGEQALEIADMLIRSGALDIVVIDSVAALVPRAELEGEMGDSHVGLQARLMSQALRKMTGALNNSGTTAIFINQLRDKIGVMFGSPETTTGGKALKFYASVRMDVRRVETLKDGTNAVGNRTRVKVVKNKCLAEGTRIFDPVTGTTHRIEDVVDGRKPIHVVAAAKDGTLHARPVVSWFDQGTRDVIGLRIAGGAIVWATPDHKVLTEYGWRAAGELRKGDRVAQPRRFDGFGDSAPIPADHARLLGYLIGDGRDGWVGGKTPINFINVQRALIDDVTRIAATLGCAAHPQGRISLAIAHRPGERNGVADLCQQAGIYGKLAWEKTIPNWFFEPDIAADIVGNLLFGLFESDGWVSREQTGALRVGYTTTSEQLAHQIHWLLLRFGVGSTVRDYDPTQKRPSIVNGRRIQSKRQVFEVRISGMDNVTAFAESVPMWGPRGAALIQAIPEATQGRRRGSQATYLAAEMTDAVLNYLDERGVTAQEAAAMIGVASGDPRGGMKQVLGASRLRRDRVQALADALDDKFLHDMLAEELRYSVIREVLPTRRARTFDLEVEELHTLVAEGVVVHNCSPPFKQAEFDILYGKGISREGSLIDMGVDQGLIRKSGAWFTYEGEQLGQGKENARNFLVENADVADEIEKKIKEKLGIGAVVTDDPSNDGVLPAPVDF
Arbovirus anti: arbovirus infection inhibition | inhibition, % at 10 µM | arbovirus infection cell-based antiviral screen | 0.37% of 200,000 active | AID 1251;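 active = inhibition from about 30%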;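 note: bluetongue infection of BSR cells; cell survival read as ATP light after 72 h; 0% = infected wells without compound and 100% = uninfected wells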
Mtb growth: M. tuberculosis H37Rv growth inhibitors, H37Rv strain (AID 1626). M. tuberculosis H37Rv growth inhibition; higher % means a stronger effect. inhibition, % at 10 µM, or IC50 in µM where a hit was titrated. 0.95% of 220,000 active;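 active = confirmed in a dose series; inconclusive = inhibition above 80% but not taken into the dose series; inactive = below 80% or under 30% at every dose of the series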;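 note: bacteria incubated seven days before Alamar blue readout; 0% = bacteria only wells and 100% = bacteria with antibiotic wells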
Mtb betalactam: beta-lactam sensitization of Mtb H37Rv; M. tuberculosis H37Rv growth with meropenem, percent inhibition; hits of this screen are not shown here; inhibition, % at 25 µM; 0.27% of 330,000 active;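 active = about 74% or more and at least 40 points above the plate without the antibiotic, then above 30% in a dose series; inconclusive = first-round hits that could not be retested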;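 note: growth measured after seven days incubation then overnight dye step; 0% = bacteria only wells and 100% = bacteria with antibiotic; twin plates without the antibiotic show which effects depend on it; some results filed as inactive read as strong as hits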
Arbovirus anti repeat: further read-out of Arbovirus anti, marked with its call; inhibition, %; measured here: 10K subset replicate screen; many hits read low in the repeat;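 first of two repeat runs on a subset; 0% = infected and 100% = uninfected wells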
Active calls of the source: *; ? = inconclusive; nt = no result given.

SMILES	YopH PTP inh	RecA splice inh	Arbovirus anti	Mtb growth	Mtb betalactam	others
C=CCc1cccc2cc(C(=O)NC(C)(C)C)c(=O)oc12	-25	4.9	-6	8%	21
CCCCS(=O)(=O)NC1=NCN(CCOC(=O)c2ccccc2)CN1	-21	-1.8	18	-22%	-5	Arbovirus anti repeat=8
O=C(CSc1nnc(CNC(=O)c2ccco2)o1)Nc1ccc(OC(F)(F)F)cc1	nt	-1.5	nt	nt	2
CCN(CC(=O)Nc1ccc2c(c1)OCCO2)C(=O)CC1CCCC1	-24	0.1	-2	10%	-5
CC(C)NC(=O)CSc1nc2ccccc2c(=O)n1CCCOC(C)C	-31	0.3	-1	5%	6
Cc1ccc(NNC(=O)c2snnc2C)cc1Cl	nt	-0.3	nt	10%	2
COc1ccc(CCc2nc(-c3ccc(-n4cccc4)cc3)no2)cc1	-26	1.0	1	1%	4	Arbovirus anti repeat=2
Cc1c(C(=O)N2CCN(Cc3ccccc3)CC2)oc2c1C(=O)CC(C)(C)C2	nt	-3.7	nt	nt	3
CC(C)N(Cc1cc2ccccc2[nH]c1=O)C(=O)C(C)(C)C	-29	-0.4	7	0%	-9
COC(=O)c1ccc(-c2noc(CN(C)CCC3CCCCO3)n2)cc1 (centres undefined)	nt	0.3	4	1%	-5
C/C(=N\NC(=O)c1ccccc1O)C1CC1	nt	-5.0	nt	nt	-1
CCOC(=O)C1=C(C)C(c2ccccc2)NC(=S)N1 (centres undefined)	-43	2.0	-6	-6%	1
Cc1cc(C)c(C)c(Cn2c(CO)nc3ccccc32)c1C	-26	0.3	14	14%	11
O=C(O)CCC(=O)NNC(=O)CCC(=O)Nc1ccccc1	nt	0.8	5	-3%	-5
CC(=O)Nc1cccc(NC(=O)CSc2nnc3ccc(-c4ccccn4)nn23)c1	nt	-8.5	nt	nt	-5
CCCn1c(N2CCN(CC(=O)c3c[nH]c4ccccc34)CC2)nc2c1c(=O)[nH]c(=O)n2C	-28	1.1	-5	-8%	-3
COCCN1C(=O)C(=O)/C(=C(/O)c2ccc(S(=O)(=O)N3CCCCC3)cc2)C1c1ccc(OC)cc1 (centres undefined)	nt	-2.1	nt	nt	-7
COc1ccc(CCNC(=O)CSc2nnc(CNC(=O)c3ccccc3F)o2)cc1OC	-14	-3.2	6	-10%	-3
CC(C)c1ccc(/C=C(\NC(=O)c2ccccc2)C(=O)NCCCN2CCOCC2)cc1	nt	2.1	nt	-9%	3
O=C(Cc1c(O)c2ccccc2[nH]c1=O)N(Cc1ccccc1)Cc1ccccc1	-14	1.0	25	-8%	-6
CNc1nc2c(C)cccn2c(=O)c1C=Nc1ccc(OC)cc1	nt	0.2	-7	?	95
COC(=O)c1cccc(NC(=O)CSc2nnc(C3CC3)n2C)c1	nt	-0.2	nt	nt	4
CCc1ccc(OCC(=O)NC(=S)Nc2ccc(Br)c(C)n2)cc1	nt	0.6	-2	?	50
C=CCNC(=O)c1cc(C(=O)C(C)c2ncc(C(F)(F)F)cc2Cl)c[nH]1 (centres undefined)	nt	-0.4	-2	-5%	2
O=C(CSc1ncn[nH]1)Nc1ccc(Cl)c(S(=O)(=O)N2CCOCC2)c1	nt	-0.8	2	-5%	5
Cc1csc(NC(=O)[C@@H](NC(=O)c2ccccc2)C(C)C)n1	8	-0.6	5	13%	1
O=C(Oc1ccccc1)N1CCOCC1	nt	-2.5	nt	nt	-5
CCOc1ccc2[nH]c(=O)c(CN(CC3COCCO3)C(=O)c3ccco3)cc2c1 (centres undefined)	nt	-1.4	nt	-14%	-7
O=C(CN1CCN(S(=O)(=O)c2ccc(Cl)cc2)CC1)NC1CC1	nt	0.4	nt	nt	-1
O=C(NNC(=O)c1cc(Cl)ccc1O)c1cccs1	nt	2.5	nt	nt	3
C/C(=C\C(=O)c1ccc(Br)cc1)N1CCCCC1	-54	2.5	-3	-5%	-4
O=C1CC2(CCN(C(=O)c3ccc(F)c(F)c3)CC2)Oc2ccccc21	nt	0.6	nt	nt	-6
Fc1ccc(CNC(=S)Nc2ccc(Cl)cc2)cc1	-12	3.6	11	9%	-5
O=C(NC1CCCCC1)N1CCC(n2cnc3ccccc32)CC1	-32	-1.1	1	-1%	-5
CC(=O)c1ccc(Nc2ccc(-c3ccccc3C)nn2)cc1	nt	-1.5	3	20%	93
CCCCOc1cccc(-c2nnc(NC(=O)CSc3ccc(C)cc3)s2)c1	-20	-0.3	-15	2%	2
CCc1cc(=O)oc2cc(C)cc(OCC(=O)NC(Cc3ccc(Cl)cc3)C(=O)O)c12 (centres undefined)	nt	-3.6	nt	nt	0
COC(=O)C1=C(O)C2(C(=O)O)CC(C(=O)OC)=C(O)C(C(=O)O)(C1)C2	nt	-0.6	nt	4%	-7
O=C1c2ccccc2S(=O)(=O)N1Cc1nnc(-c2ccccc2Br)o1	-28	2.1	13	-6%	nt
COc1ccc(N2CCN(C(=O)c3cc4c(=O)n(Cc5ccccc5)ccc4nc3C)CC2)cc1	nt	1.1	nt	nt	-2
COc1ccccc1N1CCN(c2cc(=O)n(-c3ccc(Br)cc3)c(=O)[nH]2)CC1	0	nt	-6	-4%	5
CCC(C)NC(=O)c1cn(CC)c2cc(N3CCN(C)CC3)c(F)cc2c1=O (centres undefined)	nt	-2.2	nt	-8%	1
CCc1ccc2[nH]c(C(=O)N(C)c3ccc(F)cc3F)cc2c1	nt	2.9	nt	nt	1
CN(C(=O)CC1C(=O)NCCN1Cc1cccc(C(F)(F)F)c1)C1CCOCC1 (centres undefined)	nt	-2.8	nt	nt	-9
CS(=O)(=O)N(CC(=O)N1CCOCC1)Cc1ccccc1	-2	2.4	1	-2%	6
O=C(CCC1CCN(Cc2ccc(Cl)cc2)CC1)NC1CC1	nt	3.5	nt	nt	-4
CN(C)C(=O)c1nc(C#N)c(N(C)C)o1	-26	-1.5	0	0%	6
Cc1c(CC(=O)O)c(=O)oc2cc3occ(-c4ccc(F)cc4)c3cc12	nt	-0.6	nt	nt	1
CCCCc1ncc(CN2CCC(CC3CCCCO3)(C(=O)OCC)CC2)[nH]1 (centres undefined)	nt	-2.4	2	-3%	3
O=C(N/N=C/c1ccc(OC(=O)c2cccc(F)c2)cc1)c1cccnc1	nt	4.0	nt	nt	68
Cc1cccc(NC(=S)NCc2cccs2)c1C	-10	3.2	-1	9%	3
O=C1CC(C(=O)N2CCN(c3ccc(F)cc3)CC2)CN1CCc1ccccc1 (centres undefined)	-27	-1.2	-9	1%	-3	Arbovirus anti repeat=-2
O=C(Nc1cnn(Cc2ccc(Cl)cc2)c1)c1cccs1	nt	2.1	nt	-1%	-6
C(=N\Nc1nc2ccccc2s1)/c1ccco1	-38	3.7	10	2%	86
O=C(NC(C(=O)c1ccccc1)n1c(=O)cc[nH]c1=S)c1ccccc1 (centres undefined)	-22	1.1	-3	1%	6
Cc1ccccc1-n1ncc2c(SCC(=O)NC3CCCC3)ncnc21	nt	4.6	nt	nt	-7
CC(=O)c1cc(F)c(N2CCN(c3ccc([N+](=O)[O-])cc3F)CC2)cc1C	-3	nt	1	-11%	-1
CCOC(=O)c1oc2cc(C)cc(C)c2c1C	nt	-2.6	nt	-1%	-7
CC(=O)c1ccc(OCCCC(=O)N2CCN(S(=O)(=O)c3cccs3)CC2)cc1	-44	-2.0	4	-1%	?
COCCNC(=O)c1c(N)n(CCC2=CCCCC2)c2nc3ccccc3nc12	-11	-165	-24	26%	0
New compounds follow.
SMILES	YopH PTP inh	RecA splice inh	Arbovirus anti	Mtb growth	Mtb betalactam	others
COc1ccc(C(=O)NCCSCc2ccco2)cc1OC	-13	-0.6	1	-3%	1	Arbovirus anti repeat=3
O=C(NC1CC1)c1c[nH]c2ccc(S(=O)(=O)Nc3cccc(C(F)(F)F)c3)cc2c1=O	-11	-2.5	9	-5%	37
CCc1nnc(NC(=O)C2CCN(c3nc(C)cc(C)n3)CC2)s1	-21	-2.3	11	5%	5
O=C(NCCC1=CCCCC1)C1CCN(S(=O)(=O)c2cnc[nH]2)CC1	-6	nt	15	4%	4
CNC(=O)COc1ncnc2sccc12	-14	nt	11	4%	nt
CC(C)Oc1ccc(C(=O)NC2CCN(Cc3ccccc3)CC2)cc1	nt	-1.1	nt	nt	4
O=C(NC(=O)c1c(F)cccc1F)Nc1ccccc1SC(F)F	nt	-3.9	nt	9%	2
CC(C)C(=O)NC(c1ccco1)c1c(O)ccc2ccccc12 (centres undefined)	-32	-1.2	2	-2%	17
COc1ccc(N2C(=O)CC(N3CCN(c4ccccc4OC)CC3)C2=O)cc1 (centres undefined)	nt	6.1	nt	nt	2
COc1ccc(N2CC(O)=C(c3nc4ccccc4s3)C2=N)cc1	-11	-1.8	-1	1%	6
CCC(OC(=O)c1cccs1)C(=O)NCc1ccc(C)cc1 (centres undefined)	nt	-3.5	4	2%	-8
C=CCn1c(O)c(C(=O)CCCCCC)c(=O)[nH]c1=O	-30	-0.6	9	-1%	68
COc1ccccc1NC(=O)N1CCN(c2ccccc2F)CC1	-8	-6.9	0	-8%	2
CN(C(=O)COC(=O)Cc1c(Cl)cccc1Cl)c1c(N)n(Cc2ccccc2)c(=O)[nH]c1=O	nt	0.1	nt	nt	7
O=C(CCSCCC(=O)NCc1ccco1)NCc1ccco1	-39	nt	17	-1%	-3	Arbovirus anti repeat=12
CCc1ccc(NC(=O)C2CCCN2S(=O)(=O)c2ccc3c(c2)n(C)c(=O)c(=O)n3C)cc1 (centres undefined)	nt	0.3	nt	-3%	-4
CC(=O)N/C(=C/c1ccccc1)C(=O)NCCO	-45	1.6	6	-13%	2
COc1ccc(-c2nc3ccc(C)cn3c2NCc2ccccc2)cc1SC1CCCCC1	nt	0.4	nt	nt	-2
CCn1c(Cc2ccccc2)nnc1SCC(=O)Nc1ccc(N)cc1	-37	-0.3	-7	-3%	-8
CC(/C=N/NC(=O)c1cc(-c2ccccc2)nc2ccccc12)=C\c1ccco1	-9	17	-3	16%	51
N=c1c2c(-c3ccccc3)c(-c3ccccc3)n(Cc3ccco3)c2ncn1CCCN1CCOCC1	nt	6.7	-34	35%	81
O=C1CC(N2CCC(n3c(=O)[nH]c4ccccc43)CC2)C(=O)N1c1ccc(F)cc1 (centres undefined)	-29	-4.0	6	-9%	-5
Cc1cc(C)c(C)c(OCC(=O)NCc2nc(-c3ccccc3)no2)c1	9	2.0	-6	7%	4
CCOc1ccc(NC(=O)CSc2nnc(NC(=O)C3CC3)s2)cc1	nt	0.1	nt	nt	14
CN1CCN(NC(=O)c2cccc(S(=O)(=O)N3CCCCCC3)c2)CC1	nt	0.2	8	4%	16
Cc1cc(C(=O)CSc2nnnn2-c2ccccc2)c(C)n1-c1ccc2c(c1)OCO2	-14	6.1	3	63%	nt
CCN(CC)c1ccc(/C=N/OC(C)C(=O)Nc2ccc(C)cc2)cc1 (centres undefined)	-24	6.3	9	5%	42
COc1ccc(N(C(=O)/C=C/c2ccc(OC)c(OC)c2)C2=CC3CCC(C2)N3C)cc1 (centres undefined)	nt	-1.1	-16	-9%	-9
Cn1cc(C=C2C(=O)OC3(CCCCC3)OC2=O)c2ccccc21	nt	1.2	nt	16%	98
CCC1Oc2ccccc2N(CC(=O)NCCCN2CCCC2)C1=O (centres undefined)	nt	-1.2	nt	nt	4

Among those listed so far, 5 have two or more sulfur atoms:
SMILES	YopH PTP inh	RecA splice inh	Arbovirus anti	Mtb growth	Mtb betalactam	others
O=C(CSc1ncn[nH]1)Nc1ccc(Cl)c(S(=O)(=O)N2CCOCC2)c1	nt	-0.8	2	-5%	5
CCCCOc1cccc(-c2nnc(NC(=O)CSc3ccc(C)cc3)s2)c1	-20	-0.3	-15	2%	2
Cc1cccc(NC(=S)NCc2cccs2)c1C	-10	3.2	-1	9%	3
CC(=O)c1ccc(OCCCC(=O)N2CCN(S(=O)(=O)c3cccs3)CC2)cc1	-44	-2.0	4	-1%	?
CCOc1ccc(NC(=O)CSc2nnc(NC(=O)C3CC3)s2)cc1	nt	0.1	nt	nt	14

(next part)
SMILES	YopH PTP inh	RecA splice inh	Arbovirus anti	Mtb growth	Mtb betalactam	others
CS(=O)(=O)N1CCn2c1nc1ccccc12	nt	6.8	1	-12%	-10
Cc1cccc(N2C(N)=C(C#N)C(C#N)(C#N)C2c2ccccc2)c1 (centres undefined)	-26	22	-11	1%	35
COc1ccc(C(=O)OCC(=O)NC(=O)NC2CCCC2)c(OC)c1	nt	1.1	0	2%	-6
O=C(NNS(=O)(=O)c1ccc(F)c(Cl)c1)c1cccc(S(=O)(=O)N2CCOCC2)c1	-12	0.2	-8	-1%	-4
Cn1cnnc1SCC(=O)NC(=O)NC1CCCC1	-30	1.0	6	0%	-5
O=C(NCCCN1CCCC1=O)c1ccc2c(c1)ncn2C1CCCCC1	-7	-1.5	13	nt	2	Arbovirus anti repeat=6
Cc1c(NC(=O)Nc2cc(F)c(F)cc2Cl)c(=O)n(-c2ccccc2)n1C	nt	1.9	nt	nt	7
O=C(NCc1ccccc1)c1ccc(-c2ccccc2C(F)(F)F)o1	-9	12	-23	7%	-1

High-throughput results (PubChem BioAssay)

These rows are one share of the data; count on the stated rates, not on these rows.
